# Biofilm kill mix – clotrimazole potentiators killing C. albicans biofilm, primary screen, 4-compound mixtures; C. albicans biofilm persisters + clotrimazole, fluorescence viability; primary screen in compound mixtures of four per well; inhibition, % at 7.6 µM; hit rate 0.02% among 120,000; AID 1242, 2008;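 active = inhibition above 30.3% in the primary screen of four-compound pools, then above 30% when the compound was retested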;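 note: compounds exposed to preformed 24 h biofilms for 48 h; the number belongs to the whole pool; some results filed as inactive read as strong as hits; inactives centre near 12; 0% = biofilm with clotrimazole alone and 100% = kill control; retested singly at about 60 µM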
#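 Probe or stimulus – Clotrimazole 50 µg/mL co-treatment · System – C. albicans biofilms · Schedule – 24 h biofilm formation, then 48 h compound exposure, 37 °C · Evaluation – percent inhibition of biofilm viability · Technique – 2-h Alamar Blue fluorescence, 535/590 nm excitation/emission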
# An asterisk follows results filed as active. These rows are one share of the data (hit frequency here may not be typical).
SMILES,Biofilm kill mix
CC(NS(=O)(=O)c1ccc([N+](=O)[O-])cc1)C(c1cccs1)N1CCOCC1 (configuration not stated),17.8
O=C(/C=C/c1ccc(O)c(O)c1)c1ccccc1O,12.7
O=C(NCCSCc1ccco1)Nc1cc(Cl)cc(Cl)c1,19.5
CCN(CC)S(=O)(=O)c1ccc(NC(=O)[C@@H](NC(=O)c2cc(OC)cc(OC)c2)C(C)C)cc1,9.8
CCC(C)(C)NC(=O)c1ccc2c(c1)OCCO2,9.2
O=c1/c(=C/c2ccc(O)c([N+](=O)[O-])c2)sc2nc3ccccc3n12,4.8
COCCn1c(C)cc(/C=C2\NC(=S)N(C)C2=O)c1C,-5.3
CCOC(=O)N1CCN(S(=O)(=O)c2ccc(C(=O)NNc3nc4ccc(Cl)cc4s3)cc2)CC1,7.9
CCCCNC(=S)N(C)/N=C/c1c(C)[nH]c2ccccc12,17.0
CC(=O)NC1CCN(CC(=O)Nc2cccc([N+](=O)[O-])c2)CC1,15.9
Oc1ccc(-c2n[nH]c(=S)n2-c2ccc3c(c2)OCCO3)cc1,19.9
CNC(=O)c1ccc(-c2nc(-c3ccccc3)cs2)cc1,14.2

# Nothing new here: an excerpt of the list.
SMILES,Biofilm kill mix
CC(NS(=O)(=O)c1ccc([N+](=O)[O-])cc1)C(c1cccs1)N1CCOCC1 (configuration not stated),17.8
O=C(/C=C/c1ccc(O)c(O)c1)c1ccccc1O,12.7
O=C(NCCSCc1ccco1)Nc1cc(Cl)cc(Cl)c1,19.5
CCN(CC)S(=O)(=O)c1ccc(NC(=O)[C@@H](NC(=O)c2cc(OC)cc(OC)c2)C(C)C)cc1,9.8

# (listing goes on)
SMILES,Biofilm kill mix
O=C(Nc1nc(-c2ccccn2)cs1)c1ccccc1-n1cnnn1,15.4
Cc1c(NS(=O)(=O)c2cc(NC(=O)CCN3CCCC(C)C3)ccc2Cl)c(=O)n(-c2ccccc2)n1C (configuration not stated),11.9
COCCNC(=O)C(C)OC(=O)C1=Cc2ccccc2OC1 (configuration not stated),25.9
O=C(NCCN1CCN(S(=O)(=O)c2ccc([N+](=O)[O-])cc2)CC1)C(=O)Nc1ccccc1,5.3
CCc1c(C)nc(SCC(=O)N2CCCCC2C)[nH]c1=O (configuration not stated),6.6
Cc1ccc(C2(O)C(=O)c3ccccc3C2=O)c(O)c1C,9.8
Cc1c(C(=O)NN)nc2ccccn12,16.5
Cc1ccc(C)c(SCC(=O)NC(=O)NCc2ccccc2)c1,12.0
CCN(CC)CCN1C(=O)C(O)=C(C(C)=O)C1c1ccccc1[N+](=O)[O-] (configuration not stated),15.6
CC(C)[C@H](NS(=O)(=O)c1ccccc1)C(=O)OCC(=O)Nc1ccc2c(c1)OCO2,7.2
CC(C)c1ccccc1NC(=S)NCc1ccncc1,2.2
O=C(/C=C/c1ccc(Cl)cc1)NC1CC2CCC1C2 (configuration not stated),1.9
COc1ccc(C2C3=C(CC(C)(C)CC3=O)N(CCN3CCOCC3)C3=C2C(=O)CC(C)(C)C3)cc1,1.3
O=C(CN1CCSC1=NCc1ccccc1)c1ccc(Cl)c(Cl)c1,22.1
Cc1ccc(NC(=O)C(OC(=O)c2ccc(F)cc2)c2ccccc2)cc1Cl (configuration not stated),22.8
Cc1cccc(/C=N\NC(=O)c2ccc(Cl)cc2)c1O,21.1
COc1ccc(/C=N/NC(=O)c2ccc(Br)cc2)cc1Cn1cc(Cl)cn1,16.1
C/C(=N/NC(=O)CNC(=O)c1cccnc1)c1ccc([N+](=O)[O-])cc1,26.2
COc1ccc(NC(=O)CC(c2ccccc2)c2ccco2)cc1 (configuration not stated),13.4
COc1ccc(NC(=O)CSc2nc(C)cs2)c(OC)c1,7.2
C#CCn1cc(/C=N/NC(=O)COc2cccc3cccnc23)c2ccccc21,17.5
CCCN1C(=O)N(c2cccc(C)c2)C(C)(O)CC1(C)C (configuration not stated),8.8
FC(F)(F)c1ccccc1-n1c(CN2CCCCC2)n[nH]c1=S,20.3
O=C(N/N=C/c1cccc([N+](=O)[O-])c1)C1CC1c1ccccc1 (configuration not stated),16.0
Cc1ccc(-n2c(C)cc(=O)cc2C)c(C)c1,18.0
Cc1ccc(Cn2c(=O)oc3ccccc32)cc1,14.1
CCOC(=O)C(=NC(C)(C)C)NNc1cc(Cl)ccc1Cl,3.0
CC(O)c1nc2ccccc2n1CCCOc1ccccc1 (configuration not stated),20.3
COc1ccc2nc(-c3ccccc3)cc(OC)c2c1,13.7
NC(=O)C1(N2CCCCC2)CCN(C(=S)Nc2ccc(F)cc2)CC1,6.7
CCC(C)(C)n1nnnc1CN1CCC(O)(c2cccc(C(F)(F)F)c2)CC1,15.4
COC(=O)N/N=C/c1ccc(-c2cc(Cl)cc(Cl)c2)o1,12.4
O=C(O)CSCC(=O)N1CCCN(c2nc3ccc(Cl)cc3s2)CC1,26.8
CCn1c(C)nc2c(C)[n+](CC(=O)c3ccc(Br)cc3)ccc21,24.0
CC(C)On1c(SCC(=O)N(C)C)nc2ccccc2c1=O,9.6
CC(C)C(=O)Nc1oc(-c2ccccc2)cc1C#N,3.7

# Given bar-delimited: entries from further up
structure | Biofilm kill mix
CC(O)c1nc2ccccc2n1CCCOc1ccccc1 (configuration not stated) | 20.3
COc1ccc2nc(-c3ccccc3)cc(OC)c2c1 | 13.7
NC(=O)C1(N2CCCCC2)CCN(C(=S)Nc2ccc(F)cc2)CC1 | 6.7
CCC(C)(C)n1nnnc1CN1CCC(O)(c2cccc(C(F)(F)F)c2)CC1 | 15.4
COC(=O)N/N=C/c1ccc(-c2cc(Cl)cc(Cl)c2)o1 | 12.4
O=C(O)CSCC(=O)N1CCCN(c2nc3ccc(Cl)cc3s2)CC1 | 26.8

# Grouped by structure, those above containing a CF3 group (2)
SMILES,Biofilm kill mix
FC(F)(F)c1ccccc1-n1c(CN2CCCCC2)n[nH]c1=S,20.3
CCC(C)(C)n1nnnc1CN1CCC(O)(c2cccc(C(F)(F)F)c2)CC1,15.4

# (continued)
SMILES,Biofilm kill mix
O=C(COc1nsnc1N1CCOCC1)Nc1ccc(Cl)cc1,9.6
CCC(=O)Nc1ccc(/C(C)=N\NC(=O)c2ccc(OC)cc2)cc1,19.6
Cc1cc(-c2nnc(CSc3nnc(NC(=O)c4ccc(C(C)(C)C)cc4)s3)o2)ccc1[N+](=O)[O-],26.6
CC(C)CNC(=S)NNC(=O)c1ccco1,14.1
Fc1cc(Cl)c(OCc2noc(-c3ccsc3)n2)c(Cl)c1,16.3
CN(C)CCNC(=S)Nc1ccc(Br)cc1,17.9
Cc1ccc(NC(=O)C[n+]2cc(-c3ccccc3)n3c2CCC3)cc1,25.4
CS(=O)(=O)Nc1ccc([N+](=O)[O-])cc1Oc1ccccc1,14.2
Cc1ccc(Cl)cc1N1CCN(C(=O)C2CCN(S(C)(=O)=O)CC2)CC1,14.2
O=C(O)COc1ccccc1/C=N/NC(=O)c1cccc(S(=O)(=O)Nc2cccc(Cl)c2)c1,3.5
O=S(=O)(c1ccc(Cl)nc1)N(Cc1ccccc1)Cc1ccccc1,3.3
O=C(Nc1ccccn1)c1ccc(Br)c(S(=O)(=O)N2CCCCC2)c1,-2.1
CC(C)CN(Cc1cc(=O)oc2cc3c(cc12)CCCC3)CC(C)C,15.6
CC(Sc1nc2cc(Cl)ccc2s1)C(=O)Nc1cccc(S(=O)(=O)N2CCOCC2)c1 (configuration not stated),-7.2
CC(NC(=S)NCCCN1CCOCC1)C1CC2CCC1C2 (configuration not stated),2.7
CO/N=C(\C(=O)N[C@@H]1C(=O)N2C(C(=O)O)=C(COC(C)=O)CS[C@H]12)c1csc(N)n1 (stereo in doubt),18.2
O=C(CCN1C(=O)/C(=C/c2ccccc2Cl)SC1=S)NNC(=O)c1cccnc1,9.2
OC(COc1ccc2c(c1)OCO2)CN1CCCC1 (configuration not stated),-0.1
CC(=O)N1CCN(CC(=O)Nc2ccc([N+](=O)[O-])cc2Br)CC1,8.5
CCc1cc2c(SCC(=O)Nc3ccc(Cl)cn3)ncnc2s1,11.7
COc1ccc(NC(=O)Cc2ccccc2)cc1,19.4
COc1ccc(OC)c(-c2csc(N(C)C(=O)Cc3ccccc3)n2)c1,10.2
Cc1ccc(C)c(-n2c(-c3cccnc3)n[nH]c2=S)c1,1.7
COc1ccc(CC(=O)NNc2ncnc3c2cnn3-c2ccccc2)cc1,8.7
CCN(CC)C(=O)CC(c1ccc2c(c1)OCO2)c1c(O)cc(OC)cc1OC (configuration not stated),9.6
S=c1[nH]nc2n1CCCN2,13.2
COC(=O)COc1ccc(-c2ccc(F)cc2)cc1C=O,-3.0
Cc1ccc2c(c1)c(-c1ccccc1)nc1nnnn12,1.7
COc1c(Cl)cc(Cl)cc1CNc1ccc(S(N)(=O)=O)cc1,7.0
Cc1ccc([N+](=O)[O-])cc1N1C(=O)CS/C1=N\NC(=O)c1cccnc1,23.8
COc1ccc(-n2c(C)nc3c(cnn3-c3ccc(C)cc3)c2=O)cc1,5.8
O=S(=O)(Nc1ccc(Cl)cc1)c1ccc2c(c1)CCO2,17.2
Cn1cc(-c2ccccc2C(N)=O)c(=O)c2ccccc21,12.8
Cc1cc(C)cc(Nc2c3c(nc4ncnn24)CCC3)c1,26.1
OCCN1CCN(c2nc3ccccc3nc2-c2ccccc2)CC1,6.0
CC(=O)c1ccc(NC(=O)COC(=O)c2ccccc2Sc2ccccc2C#N)cc1,9.3
CCOC(=O)C1C(=O)CC(C)(O)C(C(=O)OCC)C1c1ccc(SC)cc1 (configuration not stated),19.6
COc1ccc(C2NC(=O)C(C#N)=C(S)N2c2ccccc2)cc1OC (configuration not stated),19.9
CCOC(=O)c1cc(C#N)c(Nc2ccc(C)cc2)nc1C(F)(F)F,18.3
c1ccc(-n2nnnc2Cc2nnnn2-c2ccccc2)cc1,9.7
Cc1ccc(C(=O)Nc2nnc(CC(=O)N/N=C/c3ccncc3)s2)cc1,12.9
CCOC(=O)C1(Cc2ccccc2C(F)(F)F)CCN(C2CCC2)CC1,7.0
Clc1ccccc1CN1CCN(/N=C/C=C/c2ccco2)CC1,14.5
CCOC(=O)c1nc(C)nc(Sc2n[nH]c(-c3ccc(C(C)(C)C)cc3)n2)c1C,16.4
O=C1OC(c2ccc(F)cc2)=N/C1=C\c1ccc(Br)o1,9.0
COc1ccc(-c2nnc(S/C(=C/c3ccc(Cl)cc3)C(=O)O)o2)cc1,1.4
Cc1c(Nc2nc(C(F)(F)F)nc3ccccc23)c(=O)n(-c2ccccc2)n1C,10.7
CN1CCN(C(=S)c2ccc(-c3cccc(Cl)c3Cl)o2)CC1,16.5
N/C(=N\OC(=O)c1cc(Cl)ccc1Cl)c1ccncc1,5.0
Cc1ccc(-n2ncc3c(Nc4c(C)n(C)n(-c5ccccc5)c4=O)ncnc32)c(C)c1,8.1
Cc1ccc(S(=O)(=O)N2CCC(=O)N(CCOCc3cccc(Cl)c3)CC2)cc1,2.9
CC(=O)N/N=C(\C)CC(=O)Nc1cccc2c1CCCC2,24.4
CC1c2ccccc2N(NC(=O)Cc2ccccc2)C1C (configuration not stated),24.0
CCOC(=O)N1CCN(C(c2ccc(Cl)cc2)c2sc3nc(C)nn3c2O)CC1 (configuration not stated),6.2
COc1cccc(Nc2nc(-c3cccs3)nc3ccccc23)c1,12.2
COc1ccccc1-c1ccc(=O)n(CC(=O)NCc2ccco2)n1,20.1
Cc1cc(C)c(C#N)c(N2CCOCC2)n1,13.8
Cc1ccccc1NC(=O)CN1C(=O)S/C(=C\c2ccc(-c3cccc(C(=O)O)c3C)o2)C1=O,-4.6
CCOC(=O)c1cc(NCc2cccs2)ccc1N1CCOCC1,7.2
CCn1cc([N+](=O)[O-])c(C(=O)N2CCOCC2)n1,14.7
# Continued.
SMILES,Biofilm kill mix
CS(=O)(=O)N1N=C(c2cccs2)CC1c1ccc(Cl)o1 (configuration not stated),6.3
COc1ccc(C2C3C=CCC(c4cccc(-c5ccc(C)cc5)c4)C3C(=O)N2Cc2ccccc2)cc1Cl (configuration not stated),13.0
NC(=O)[C@@H]1CCCCNc2c(F)cc([N+](=O)[O-])cc2C(=O)N[C@@H](CC(=O)O)C(=O)NCC(=O)N1,15.6
CC(C)CCNCC1OCc2ccccc2CO1,1.1
C=C(C)c1cccc(C(C)(C)NC(=O)Nc2ccc(C(N)=O)cc2)c1,18.7
COc1cc(NC(=O)c2c(F)cccc2F)c(Cl)cc1Cl,10.5
Cc1cc(C)c(OCC(O)CNC(C)(C)C)c(C)c1 (configuration not stated),2.7
CC(=O)N(NC(N)=O)C(C)CC(=O)C1C(C)C=CCC1(C)C (configuration not stated),12.6
O=C(CN1CCOCC1)Nc1c(C(=O)C2CC2)oc2ccccc12,21.6
O=C(Nc1ccc([N+](=O)[O-])cc1)c1nc[nH]c1C(=O)NC1CCCCC1,3.4
COc1ccc(CC(=O)Nc2ccccc2Oc2ccccc2)cc1,7.4
CCN(CC)C(=O)Oc1nnc(SC(C)C)n1-c1ccc(Cl)c(Cl)c1,4.2
Cc1ccc[n+](-c2nc([O-])sc2C=O)c1,13.9
Cc1nc(NCCc2ccc(F)cc2)c(C#N)c(C)c1[N+](=O)[O-],18.2
COCCn1c(CN2CCc3ccccc3C2)nc2c1c(=O)n(C)c(=O)n2C,11.9
N=c1c2c(ncn1Cc1ccco1)Oc1c(ccc3ccccc13)C2c1ccccc1 (configuration not stated),6.3
Cc1ccc(F)c(NC(=O)/C(C#N)=C(\O)c2ccc(C(C)(C)C)cc2)c1,13.4
COc1ccccc1NC(=O)Cn1nc(-c2ccc3c(c2)OCCO3)ccc1=O,15.7
C/C(=N\NC(=O)C(N)=O)c1cccc([N+](=O)[O-])c1,15.5
O=C(CCN1C(=O)/C(=C/c2ccccc2Cl)SC1=S)NC1=NCCS1,19.7
Clc1ccc2c(N/N=C/c3cccc(Br)c3)ccnc2c1,9.9
O=c1c2ccccc2c(-c2ccc(O)cc2)nn1-c1cccc(C(F)(F)F)c1,14.2
Cc1ccccc1Nc1n[nH]c(C)c1[N+](=O)[O-],15.1
CCOC(=O)N1CCN(C(=S)Nc2cccc(C)c2C)CC1,14.8

# Source: PubChem
